Rce1 inh – yeast Rce1p protease inhibitors, primary screen, biochemical, fluorescence, cell-free homogeneous; 290,000 compounds, 0.27% hits; AID 2563, 2010; yeast membranes, quenched prenylated peptide cleavage fluorescence; calls only; CAAX prenyl protease 2 (Saccharomyces cerevisiae (strain ATCC 204508 / S288c)), Q03530;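 active means fall in fluorescence gain of 50% or more versus controls, with final raw signal at or below 3038400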;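 further: plate controls were neutral control wells for no effect and wells lacking membranes for full effect; tested at 10 µM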
Target sequence (Q03530 whole entry, looked up): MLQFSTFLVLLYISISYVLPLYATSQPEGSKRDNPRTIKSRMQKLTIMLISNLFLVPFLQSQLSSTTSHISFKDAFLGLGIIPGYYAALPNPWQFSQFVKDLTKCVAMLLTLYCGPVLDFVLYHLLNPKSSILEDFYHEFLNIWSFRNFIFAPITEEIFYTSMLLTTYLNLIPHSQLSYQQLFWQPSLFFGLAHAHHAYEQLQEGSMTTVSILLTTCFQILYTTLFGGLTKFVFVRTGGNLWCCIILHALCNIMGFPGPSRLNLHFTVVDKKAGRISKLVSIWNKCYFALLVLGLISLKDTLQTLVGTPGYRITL
MT1-MMP act inh – blockers of MT1-MMP proenzyme processing, primary screen, HT1080 RFP-PRO-GFP cells, GFP/RFP fluorescence. Matrix metalloproteinase-14 (Homo sapiens), P50281. GFP/RFP ratio fluorescence, overnight; percent of plate control window, DMSO zero. GFP/RFP ratio change, % at 20 µM. 360,000 compounds, 0.061% hits;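 active means GFP/RFP ratio change of at least 30% with cell ATP level not reduced by more than half and red fluorescence within 50% of control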; further: strong numbers were not always called active
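system = RFP-PRO-GFP reporter HT1080 cells | dosing = 20 µM single dose, 1% DMSO | timing = overnight cell settling, then overnight compound exposure, 37 °C, 5% CO2 | read-out basis = GFP/RFP fluorescence ratio | controls = DMSO and RFP-L50D-GFP cell wells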
Env fusion inh – inhibitors of HIV-1 Env-driven cell-cell fusion, primary screen, HeLa-JRFL effector, CEM21 target cells, luciferase; inhibition, % at 12.3 µM; 360,000 compounds, 1.1% hits; AID 651610, 2012;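 active means mean replicate inhibition score of at least 50 and every replicate individually at or above 50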;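 further: 0% = plate neutral controls and 100% = maraviroc near 300 nM; one replicate is shown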
CSC inhib – cancer stem cell viability inhibitors, primary screen, luminescence; cancer stem cell-like cells viability; inhibition, % at 7.5 µM; 300,000 compounds, 1.1% hits; AID 2717, 2010;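 active means mean at 75% or more and at least half the replicates too; tested in HMLE shEcad cells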;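 further: 0% = median of negative and 100% = median of positive control wells; the first replicate is given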
PABP FP inh – PABP poly(A) RNA binding inhibitors, primary screen, biochemical, fluorescence polarization, uHTS. Polyadenylate-binding protein 1 (Homo sapiens), P11940. inhibition, % at 35 µM. 290,000 compounds, 1% hits. AID 2014, 2009;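 active means 50% or more with normal probe brightness, or confirmed in later tests; about a fifth of its hits are not listed in these tables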;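 further: calls also rest on retests at 20 µM and on dose response follow-up; controls were probe without protein and protein plus probe with vehicle; some compounds called inactive have numbers as strong as hits; many hits fall short of the cut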
Yeast UUG start – modulators of yeast start codon fidelity, primary screen, whole organism, S. cerevisiae, single point, plate reader | S. cerevisiae UUG-firefly luciferase reporter, luminescence/redox ratio | activity score, % at 18.7 µM | 350,000 compounds, 0.13% hits | AID 602363, 2012;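 active means replicate mean at a twofold rise or more, about +100% in these data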;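 further: firefly luciferase made from a UUG start codon reports start codon fidelity; reporter light over untreated wells divided by growth signal over untreated wells; some hits fall short of that in this replicate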
eIF4H FP inh – human eIF4H binding inhibitors, primary screen, translation initiation inhibitor project, biochemical, uHTS, fluorescence polarization; Eukaryotic translation initiation factor 4H (Homo sapiens), Q15056; eIF4H fluorescence polarization binding assay; inhibition, % at 35 µM; 290,000 compounds, 0.94% hits; AID 2012, 2009;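 active means 50% or more with normal probe brightness, or confirmed in later tests; about a fifth of its hits are not listed in these tables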;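 further: calls also rest on retests at 20 µM and on dose response follow-up; 0% = protein and probe with vehicle and 100% = probe without protein; strong numbers were not always called active; many hits fall short of the cut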
MT1-MMP act inh RFP – also measured in MT1-MMP act inh; calls as there; RFP signal change, %; measured here: RFP expression control read;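 0 = vehicle wells; hits needed this value within 50% of zero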
Active calls of the source: *; & = joins results of further samples.

How did COc1cc(NC(=O)Cn2cnc(S(=O)(=O)N3CCCC3)c2)cc(OC)c1OC do in these assays?
Rce1 inh: inactive; MT1-MMP act inh: 6; Env fusion inh: -6; CSC inhib: -2; PABP FP inh: 6; Yeast UUG start: -16; eIF4H FP inh: -12; MT1-MMP act inh RFP: 3

Results for CC1(S(=O)(=O)O)CC(=O)c2ccccc2C1=O (stereo not drawn) ?
Rce1 inh: inactive; MT1-MMP act inh: -53; Env fusion inh: 10; CSC inhib: -2; PABP FP inh: 18; Yeast UUG start: -27; eIF4H FP inh: -2; MT1-MMP act inh RFP: 6

What do the screens show for `O=[N+]([O-])c1ccc(N/N=C\c2cccn2-c2ccccc2)nc1`?
Rce1 inh: inactive; CSC inhib: 36; PABP FP inh: 17; Yeast UUG start: -11; eIF4H FP inh: 50

Results for Cc1ccc(N(C(C)C(=O)N2CCN(Cc3ccccc3)CC2)S(C)(=O)=O)cc1 (stereo not drawn) ?
Rce1 inh: inactive; MT1-MMP act inh: -2; Env fusion inh: 11; CSC inhib: 9; PABP FP inh: 13; Yeast UUG start: -11; eIF4H FP inh: -14; MT1-MMP act inh RFP: -12

How did Cc1cccc(NC(=O)CSc2nnc(CNC(=O)c3ccc(S(=O)(=O)N(C)C)cc3)n2-c2ccc(F)cc2)c1 do in these assays?
Rce1 inh: inactive; MT1-MMP act inh: 0; CSC inhib: -1; PABP FP inh: -6; Yeast UUG start: -4; eIF4H FP inh: -5; MT1-MMP act inh RFP: -1

What do the screens show for `CCOc1ccc(S(=O)(=O)NCCC(=O)N2CCN(c3ccccc3O)CC2)cc1`?
Rce1 inh: inactive; MT1-MMP act inh: 0; Env fusion inh: 2; Yeast UUG start: 5; MT1-MMP act inh RFP: -4

What do the screens show for `CC(C)c1onc(C(=O)N2CCCCC2)c1[N+](=O)[O-]`?
Rce1 inh: inactive; MT1-MMP act inh: 10; Env fusion inh: 24; CSC inhib: -9; PABP FP inh: 14; eIF4H FP inh: -4; MT1-MMP act inh RFP: 2

What do the screens show for `CCn1cc(C2=NC(C(C)C)CO2)c2ccccc21` (stereo not drawn)?
Rce1 inh: inactive; MT1-MMP act inh: 4; Env fusion inh: -5; CSC inhib: 7; PABP FP inh: 2; Yeast UUG start: -13; eIF4H FP inh: -9; MT1-MMP act inh RFP: 5

Results for Cc1ccc(NC(=O)C2CCCN2C(=O)OCc2ccccc2)cc1F (stereo not drawn) ?
Rce1 inh: inactive; MT1-MMP act inh: -5; Env fusion inh: 3; CSC inhib: -11; PABP FP inh: -3; Yeast UUG start: -6; eIF4H FP inh: -2; MT1-MMP act inh RFP: 4

What do the screens show for `CCCC(C(=O)NCc1ccc(OC)cc1)N(Cc1ccco1)C(=O)c1snc(C(N)=O)c1N` (stereo not drawn)?
Rce1 inh: inactive; MT1-MMP act inh: -9; CSC inhib: -4; PABP FP inh: -8; Yeast UUG start: -13; eIF4H FP inh: 2; MT1-MMP act inh RFP: -2

Results for CSc1nsc(SC)c1C(=O)N1CCN(S(=O)(=O)c2ccc(C)cc2)C1C (stereo not drawn) ?
Rce1 inh: inactive; MT1-MMP act inh: -1; CSC inhib: 1; PABP FP inh: -6; Yeast UUG start: -17; eIF4H FP inh: -12; MT1-MMP act inh RFP: -1

What do the screens show for `CCOCCc1nnc(NC(=O)c2cccs2)s1`?
Rce1 inh: inactive; MT1-MMP act inh: -11; Env fusion inh: -37; CSC inhib: -10; PABP FP inh: 0; Yeast UUG start: -24; eIF4H FP inh: 1; MT1-MMP act inh RFP: -5

What do the screens show for `CCOC(=O)N(C)C[C@@H]1OCc2cnnn2CCCC(=O)N([C@@H](C)CO)C[C@@H]1C`?
MT1-MMP act inh: 3; Env fusion inh: -25; Yeast UUG start: -8&8; MT1-MMP act inh RFP: 6

How did CC(=O)NNC(=O)c1ccncc1 do in these assays?
Rce1 inh: inactive; MT1-MMP act inh: 8; Env fusion inh: -9; CSC inhib: -2; PABP FP inh: 0; Yeast UUG start: -14; eIF4H FP inh: -1; MT1-MMP act inh RFP: 4

Results for COc1ccc(/C=C/C(=O)Nc2cccc(S(=O)(=O)NC3=NCCCCC3)c2)c(OC)c1 ?
MT1-MMP act inh: 0; Env fusion inh: 1; CSC inhib: -11; Yeast UUG start: 17; MT1-MMP act inh RFP: -1

Results for CCCc1cc(C(=O)N2CCCC(CO)(CCCc3ccccc3)C2)n(C)n1 (stereo not drawn) ?
Rce1 inh: inactive; MT1-MMP act inh: 5; Env fusion inh: 28; CSC inhib: -10; PABP FP inh: -7; Yeast UUG start: -5; eIF4H FP inh: -4; MT1-MMP act inh RFP: -3

Results for Cc1ccc(OCCC(=O)OCC(=O)Nc2ccc3c(c2)OCO3)cc1 ?
Rce1 inh: inactive; MT1-MMP act inh: 0; Env fusion inh: 18; CSC inhib: -7; Yeast UUG start: 9; MT1-MMP act inh RFP: 5

How did Cc1onc(-c2c(Cl)cccc2Cl)c1C(=O)NNC(=O)c1c(-c2c(Cl)cccc2Cl)noc1C do in these assays?
Rce1 inh: inactive; MT1-MMP act inh: -2; Env fusion inh: 4; CSC inhib: 10; PABP FP inh: -1; Yeast UUG start: 6; eIF4H FP inh: -2; MT1-MMP act inh RFP: -7

Results for Cc1ccsc1/C=N/NC(=S)NCc1ccccc1 ?
Rce1 inh: inactive; MT1-MMP act inh: -1; Env fusion inh: -14; CSC inhib: 22; PABP FP inh: -1; Yeast UUG start: -35; eIF4H FP inh: 16; MT1-MMP act inh RFP: -8

What do the screens show for `COc1cc(NC(=O)NCC2CCN(Cc3ccccc3F)CC2)cc(OC)c1`?
Rce1 inh: inactive; MT1-MMP act inh: 1; Env fusion inh: 1; CSC inhib: -2; PABP FP inh: 6; Yeast UUG start: 0; eIF4H FP inh: -10; MT1-MMP act inh RFP: 5

What do the screens show for `COc1ccc(C(C)=O)cc1CN(C)C`?
Rce1 inh: inactive; MT1-MMP act inh: -1; Env fusion inh: -102; CSC inhib: -19; PABP FP inh: 18; eIF4H FP inh: 1; MT1-MMP act inh RFP: 0

Results for CCN(CC)S(=O)(=O)c1cc(NC(=O)COC(=O)c2c(C)noc2C)ccc1C ?
MT1-MMP act inh: -8; Env fusion inh: 29; CSC inhib: -4; MT1-MMP act inh RFP: -18

Results for COc1ccc(C(=O)NCCn2nc(C)cc2C)cc1OC1CCN(C(C)=O)CC1 ?
Rce1 inh: inactive; MT1-MMP act inh: 1; Env fusion inh: -5; CSC inhib: 8; PABP FP inh: 6; Yeast UUG start: -1; eIF4H FP inh: -9; MT1-MMP act inh RFP: 4

How did O=[N+]([O-])c1ccc2nonc2c1Nc1ccccc1 do in these assays?
Rce1 inh: inactive; MT1-MMP act inh: 7; Env fusion inh: -12; CSC inhib: 1; PABP FP inh: 25; Yeast UUG start: -3; eIF4H FP inh: 29; MT1-MMP act inh RFP: 0

How did COc1ccc(C(=O)COC(=O)CCCC(=O)NC2CCCCC2)cc1 do in these assays?
Rce1 inh: inactive; MT1-MMP act inh: -2; Env fusion inh: -15; CSC inhib: -7; PABP FP inh: 11; Yeast UUG start: 0; eIF4H FP inh: 3; MT1-MMP act inh RFP: -1

How did CCOc1ccccc1/C=N\Nc1cnn(Cc2ccccc2)c(=O)c1Cl do in these assays?
Rce1 inh: inactive; MT1-MMP act inh: -10; Env fusion inh: 21; CSC inhib: -3; PABP FP inh: 7; eIF4H FP inh: 3; MT1-MMP act inh RFP: -3

How did COCCN(C(=O)CSc1cc(C)c2ccccc2n1)c1c(N)n(CC(C)C)c(=O)[nH]c1=O do in these assays?
MT1-MMP act inh: -2; Env fusion inh: 1; Yeast UUG start: -13; MT1-MMP act inh RFP: 4

What do the screens show for `Cc1cc(OCCCn2ccnc2)cc(C(C)C)c1`?
Rce1 inh: inactive; MT1-MMP act inh: -1; Env fusion inh: 6; CSC inhib: -3; PABP FP inh: 0; Yeast UUG start: -16; eIF4H FP inh: -2; MT1-MMP act inh RFP: -1

How did COc1ccc(C(C)NC(=S)NC2CCCCC2)cc1OC (stereo not drawn) do in these assays?
Rce1 inh: inactive; MT1-MMP act inh: 2; Env fusion inh: -7; CSC inhib: -10; PABP FP inh: 5; Yeast UUG start: -28; eIF4H FP inh: -8; MT1-MMP act inh RFP: 2

Results for COc1cc(/C=N/NC(=O)NC2CCCCC2)ccc1O ?
Rce1 inh: inactive; MT1-MMP act inh: 7; Env fusion inh: -2; CSC inhib: -24; PABP FP inh: -2; Yeast UUG start: 6; eIF4H FP inh: 6; MT1-MMP act inh RFP: 0

Compounds from the list above containing a thiophene ring, fused or not:
What do the screens show for `CCOCCc1nnc(NC(=O)c2cccs2)s1`?
Rce1 inh: inactive; MT1-MMP act inh: -11; Env fusion inh: -37; CSC inhib: -10; PABP FP inh: 0; Yeast UUG start: -24; eIF4H FP inh: 1; MT1-MMP act inh RFP: -5

Results for Cc1ccsc1/C=N/NC(=S)NCc1ccccc1 ?
Rce1 inh: inactive; MT1-MMP act inh: -1; Env fusion inh: -14; CSC inhib: 22; PABP FP inh: -1; Yeast UUG start: -35; eIF4H FP inh: 16; MT1-MMP act inh RFP: -8

Next structures
What do the screens show for `Cc1cccc(NC(=O)c2nc[nH]c2C(=O)NCC(=O)OC(C)(C)C)c1`?
Rce1 inh: inactive; MT1-MMP act inh: 4; Env fusion inh: -14; CSC inhib: -2; PABP FP inh: 10; Yeast UUG start: -11; eIF4H FP inh: 0; MT1-MMP act inh RFP: 4

Results for COc1ccc(S(=O)(=O)N(C)C)cc1NC(=O)COc1ccc2c(c1)CCC2 ?
MT1-MMP act inh: 3; Env fusion inh: -7; Yeast UUG start: -7; MT1-MMP act inh RFP: -2

How did CCOC(=O)c1cc2c(ccn2C)n1CC(=O)N(CC)CC do in these assays?
Rce1 inh: inactive; MT1-MMP act inh: -2; Env fusion inh: 12; CSC inhib: -8; PABP FP inh: 28; Yeast UUG start: -15; eIF4H FP inh: 36; MT1-MMP act inh RFP: 0

Results for COCCN(CCOC)S(=O)(=O)c1ccc(C(=O)NCCCN2CCOCC2)cc1 ?
Rce1 inh: inactive; MT1-MMP act inh: -2; PABP FP inh: -4; Yeast UUG start: -5; eIF4H FP inh: -15; MT1-MMP act inh RFP: -1

What do the screens show for `CCCN1C(=O)CC(c2ccc(OC)c(OC)c2)C1=O` (stereo not drawn)?
MT1-MMP act inh: 6; Env fusion inh: 11; Yeast UUG start: 6; MT1-MMP act inh RFP: 6

What do the screens show for `CC(C)(C)C(=O)C[n+]1ccccc1`?
Rce1 inh: inactive; MT1-MMP act inh: 0; Env fusion inh: 6; CSC inhib: -2; PABP FP inh: -2; Yeast UUG start: -32; eIF4H FP inh: -2; MT1-MMP act inh RFP: -1

How did Cc1cccc(C)c1NC(=O)CN(C)CC(=O)Nc1cc(Cl)ccc1C#N do in these assays?
Rce1 inh: inactive; MT1-MMP act inh: -2; Env fusion inh: 11; CSC inhib: -3; PABP FP inh: -3; Yeast UUG start: -10; eIF4H FP inh: -6; MT1-MMP act inh RFP: -1

What do the screens show for `CN(C)c1ccc(/C=N\Nc2nc(-c3ccccc3)cc(=O)[nH]2)cc1`?
Rce1 inh: inactive; MT1-MMP act inh: 8; CSC inhib: 9; PABP FP inh: 5; eIF4H FP inh: 8; MT1-MMP act inh RFP: 0

Results for Cn1c(=O)c2c(nc(CN3CCC(C(N)=O)CC3)n2Cc2c(Cl)cccc2Cl)n(C)c1=O ?
Rce1 inh: inactive; MT1-MMP act inh: -1; Env fusion inh: -22; CSC inhib: -22; PABP FP inh: 4; Yeast UUG start: -16; eIF4H FP inh: -11; MT1-MMP act inh RFP: 2

The list is partial (hit frequency here may not be typical).
